Screening data as filed in PubChem.
Mtb betalactam – beta-lactam sensitization of Mtb H37Rv; 330,000 tested, 0.27% active; inhibition, % at 25 µM; AID 434955; M. tuberculosis H37Rv growth with meropenem, percent inhibition; hits of this screen are not shown here;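 active = about 74% or more and at least 40 points above the plate without the antibiotic, then above 30% in a dose series; inconclusive = first-round hits that could not be retested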;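 also: growth measured after seven days incubation then overnight dye step; 0% = bacteria only wells and 100% = bacteria with antibiotic; twin plates without the antibiotic show which effects depend on it; some results filed as inactive read as strong as hits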
Mtb H37Rv – M. tuberculosis H37Rv growth inhibitors, H37Rv strain (AID 1626); 220,000 tested, 0.95% active; M. tuberculosis H37Rv growth inhibition; higher % means a stronger effect; inhibition, % at 10 µM; hits with a dose series show IC50 in µM;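 active = confirmed in a dose series; inconclusive = inhibition above 80% but not taken into the dose series; inactive = below 80% or under 30% at every dose of the series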;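 also: bacteria incubated seven days before Alamar blue readout; 0% = bacteria only wells and 100% = bacteria with antibiotic wells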
Arbovirus inh – blocks arbovirus infection; arbovirus infection cell-based antiviral screen; 200,000 tested, 0.37% active; AID 1251; inhibition, % at 10 µM;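 active = inhibition from about 30%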;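 also: bluetongue infection of BSR cells; cell survival read as ATP light after 72 h; 0% = infected wells without compound and 100% = uninfected wells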
YopH inh – blocks Yersinia enterocolitica YopH tyrosine phosphatase; fluorescence Ex485/Em525; inhibition, %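 (about 10 µM by stock and volumes)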; 140,000 tested, 0.16% active; AID 898;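 active = inhibition of 50% or more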;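 also: controls were vehicle for no effect and minimum signal wells for full effect; inactives centre near -20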
RecA intein inh – Mtb RecA intein splicing inhibition | 290,000 tested, 0.75% active | P9WHJ3 | cell-free RecA intein splicing, fluorescence | AID 2221 | inhibition, %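 (about 9 µM by stock and volumes)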; in the data active = inhibition above about 30%; inconclusive = no clear call, values can overlap the other calls;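 also: 0% = vehicle wells and 100% = reference inhibitor control wells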
Target sequence (P9WHJ3 whole entry, looked up): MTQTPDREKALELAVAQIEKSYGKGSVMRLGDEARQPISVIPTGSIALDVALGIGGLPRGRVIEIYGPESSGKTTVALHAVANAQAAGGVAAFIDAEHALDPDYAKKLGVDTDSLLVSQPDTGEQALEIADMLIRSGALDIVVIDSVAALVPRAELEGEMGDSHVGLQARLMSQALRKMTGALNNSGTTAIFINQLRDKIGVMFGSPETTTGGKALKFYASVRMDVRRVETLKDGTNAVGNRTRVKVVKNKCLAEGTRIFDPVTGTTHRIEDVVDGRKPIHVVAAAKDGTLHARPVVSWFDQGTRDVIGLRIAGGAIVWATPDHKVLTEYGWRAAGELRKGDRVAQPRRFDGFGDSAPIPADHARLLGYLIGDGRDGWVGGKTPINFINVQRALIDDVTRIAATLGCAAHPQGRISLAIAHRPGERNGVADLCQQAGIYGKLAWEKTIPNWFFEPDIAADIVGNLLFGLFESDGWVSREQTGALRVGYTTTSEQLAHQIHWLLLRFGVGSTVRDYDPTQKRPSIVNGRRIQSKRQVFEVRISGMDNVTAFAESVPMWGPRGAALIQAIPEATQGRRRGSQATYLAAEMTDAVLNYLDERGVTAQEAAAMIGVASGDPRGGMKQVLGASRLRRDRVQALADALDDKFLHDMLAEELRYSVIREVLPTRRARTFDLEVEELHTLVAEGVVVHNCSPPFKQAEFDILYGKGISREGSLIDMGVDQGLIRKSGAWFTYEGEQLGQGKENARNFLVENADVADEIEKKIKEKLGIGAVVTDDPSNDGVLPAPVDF
* = called active by the depositor.

Cc1no[n+]([O-])c1COc1cccc(/C=C2\N=C(c3ccccc3)OC2=O)c1 was read as Mtb betalactam 91, Mtb H37Rv 37%, Arbovirus inh 0, YopH inh -28 and RecA intein inh 0.0.
Screening CCOC(=O)c1c(C)[nH]c(C)c1S(=O)(=O)N(C)CC(=O)NCc1cccc(C)c1 returned Mtb betalactam 0 and RecA intein inh 0.2.
For CCOC(=O)C1=C(C)Nc2ccccc2N=C1N the results were Mtb betalactam -2, Mtb H37Rv 0%, Arbovirus inh 2 and RecA intein inh 2.7.
For CC(C)n1c(=S)[nH]c2ccccc2c1=O the results were Mtb betalactam 25, Mtb H37Rv 4%, Arbovirus inh -6, YopH inh -30 and RecA intein inh -1.0.
Screening CCc1ccc(NC(=O)/C(C#N)=C\c2ccc(OC)c(C(=O)O)c2)cc1 returned Mtb betalactam -4, Mtb H37Rv 29%, Arbovirus inh 3 and RecA intein inh 0.0.
For CCOC(=O)Cc1csc(NS(=O)(=O)c2cc(Cl)ccc2Cl)n1 the results were Mtb betalactam -3 and RecA intein inh 3.0.
O=S(=O)(NCC1CCCO1)c1ccc(-c2ccc(Cl)cc2)cc1 (stereo not drawn) was read as Mtb betalactam 0, Mtb H37Rv 5%, Arbovirus inh 1 and RecA intein inh 0.4.
O=C(NCc1ccco1)/C(=C/c1ccc([N+](=O)[O-])cc1)NC(=O)c1ccco1 was read as Mtb betalactam -9 and RecA intein inh -2.7.
Screening O=C(Nc1ccc2oc(-c3cccnc3)nc2c1)c1ccc2c(c1)OCCO2 returned Mtb betalactam 8, Mtb H37Rv -2%, Arbovirus inh -15 and RecA intein inh 1.6.
`Clc1ccc(CN2CCCCCCC2)cc1Cl` gave Mtb betalactam -5, Mtb H37Rv 3%, Arbovirus inh 4, YopH inh -29 and RecA intein inh 1.0.
`CC(C)(C)C(=O)N1CCN(CCN2C(=O)c3cccc4cccc(c34)C2=O)CC1` gave Mtb betalactam -3 and RecA intein inh 0.1.
COc1ccc(CCNC(=O)Cn2nc(C)c3c(C)n(-c4ccccc4)nc3c2=O)c(OC)c1 was read as Mtb betalactam -4 and RecA intein inh 2.9.

Random excerpt: 3 entries already listed
For CC(C)n1c(=S)[nH]c2ccccc2c1=O the results were Mtb betalactam 25, Mtb H37Rv 4%, Arbovirus inh -6, YopH inh -30 and RecA intein inh -1.0.
Screening O=C(Nc1ccc2oc(-c3cccnc3)nc2c1)c1ccc2c(c1)OCCO2 returned Mtb betalactam 8, Mtb H37Rv -2%, Arbovirus inh -15 and RecA intein inh 1.6.
O=C(NCc1ccco1)/C(=C/c1ccc([N+](=O)[O-])cc1)NC(=O)c1ccco1 was read as Mtb betalactam -9 and RecA intein inh -2.7.

Further results:
Screening O=C(COC(=O)/C=C/c1ccc(Cl)cc1)NCCc1ccccc1 returned Mtb betalactam 21, Mtb H37Rv -8%, Arbovirus inh 7, YopH inh -7 and RecA intein inh -1.6.
CCC(=O)Nc1ccc(/C=C(\C(C)=O)C(=O)c2ccccc2)cc1 was read as Mtb betalactam -10, Mtb H37Rv -1% and RecA intein inh 0.3.
CCOC(=O)C(Cc1ccccc1)NC(=O)CCCC(=O)c1ccccc1 (stereo not drawn) was read as Mtb betalactam 8 and RecA intein inh 1.3.
For C=CCn1c(SCC(=O)c2cc(C)n(CC3CCCO3)c2C)nnc1-c1ccccc1 (stereo not drawn) the results were Mtb betalactam inconclusive, Mtb H37Rv -12%, Arbovirus inh 6, YopH inh -32 and RecA intein inh -0.4.
Screening Cn1c(SCC(=O)Nc2ccc(Cl)cc2)nnc1C1CC1 returned Mtb betalactam -2 and RecA intein inh -3.0.
COc1ccc(Br)cc1/C=N/Nc1ccccn1 was read as Mtb betalactam -2 and RecA intein inh 0.6.
Screening Cc1nc(C(F)(F)F)c(C(=O)N=CN(C)C)s1 returned Mtb betalactam -2, Mtb H37Rv 0%, Arbovirus inh -3 and RecA intein inh 4.7.
`O=c1[nH]c(-c2cccs2)nc2ccccc12` gave Mtb betalactam -3, Mtb H37Rv -2%, Arbovirus inh -1, YopH inh -28 and RecA intein inh 0.2.
CN1CCN(CCC(=O)N2c3ccccc3Sc3ccc(Cl)cc32)CC1 was read as Mtb betalactam 0, Mtb H37Rv 1%, Arbovirus inh 1, YopH inh -2 and RecA intein inh -1.1.
`CC(=O)N1c2ccccc2CCc2ccc([N+](=O)[O-])cc21` gave Mtb betalactam -2 and RecA intein inh -0.7.
For CCN(CC)C(=O)c1ccc(S(=O)(=O)c2ccccc2)cc1 the results were Mtb betalactam -1 and RecA intein inh 0.9.
Screening Cc1cc(C)c2c(NC(N)=S)n[nH]c2n1 returned Mtb betalactam 0, Mtb H37Rv 2%, Arbovirus inh 9 and RecA intein inh -0.6.

As a short view, part of the list above.
Screening O=C(COC(=O)/C=C/c1ccc(Cl)cc1)NCCc1ccccc1 returned Mtb betalactam 21, Mtb H37Rv -8%, Arbovirus inh 7, YopH inh -7 and RecA intein inh -1.6.
CCC(=O)Nc1ccc(/C=C(\C(C)=O)C(=O)c2ccccc2)cc1 was read as Mtb betalactam -10, Mtb H37Rv -1% and RecA intein inh 0.3.

Additional records follow:
For COc1cccc2cc(C(=O)N3CCCCC3C)c(=O)oc12 (stereo not drawn) the results were Mtb betalactam -15, Mtb H37Rv -3%, Arbovirus inh -2, YopH inh -25 and RecA intein inh -4.7.
`CCCCc1c(C)nc(N)[nH]c1=O` gave Mtb betalactam -4, Mtb H37Rv -2%, Arbovirus inh -6, YopH inh -20 and RecA intein inh -2.7.
For CC(C)(C)NC(=O)C1CC(=O)N(CCc2ccc(F)cc2)C1 (stereo not drawn) the results were Mtb betalactam 0 and RecA intein inh -0.3.
`O=c1n(CCCN2CCN(c3cccc(Cl)c3)CC2)nc2ccccn12` gave Mtb betalactam -2, Mtb H37Rv -6%, Arbovirus inh -5, YopH inh -26 and RecA intein inh 0.8.
`CC(C)n1c(SCC(=O)NCc2ccco2)nc2c1c(=O)n(C)c(=O)n2C` gave Mtb betalactam -3, Mtb H37Rv 9%, Arbovirus inh -4, YopH inh -23 and RecA intein inh 3.2.
`O=C(Nc1cccc(Cl)c1)Nc1nnc(CSCCOc2ccc(Cl)cc2)s1` gave Mtb betalactam 9, Mtb H37Rv 8%, Arbovirus inh 19, YopH inh -34 and RecA intein inh 0.2.
`Cn1c(CN2CCCCC2)nc2cc(NC(=O)c3cccs3)ccc21` gave Mtb betalactam 1, Mtb H37Rv -4%, Arbovirus inh -7, YopH inh 5 and RecA intein inh 0.8.
Screening N#CCCN(Cc1ccccc1)C(=O)Nc1ccc(F)cc1 returned Mtb betalactam -8, Mtb H37Rv -8% and RecA intein inh 2.7.
C/C(=N\OC(=O)c1cccc(C)c1)c1sc(-c2ccccc2)nc1C was read as Mtb betalactam 88, Mtb H37Rv -2%, Arbovirus inh 1, YopH inh -16 and RecA intein inh -0.1.
Screening CC(C)C(=O)Nc1nnc(SCC(=O)Nc2ccc3c(c2)OCO3)s1 returned Mtb betalactam -3, Mtb H37Rv -8%, Arbovirus inh 1, YopH inh -18 and RecA intein inh -0.8.
For Cc1noc(C)c1C(=O)OCC(=O)NCCC1=CCCCC1 the results were Mtb betalactam -2, Mtb H37Rv -2%, Arbovirus inh 1 and YopH inh -47.
Screening COCCNC(=S)N(CCc1c(C)[nH]c2ccc(F)cc12)Cc1cccnc1 returned Mtb betalactam -5 and RecA intein inh -0.2.
For Cc1nc(SCC(=O)N2CCN(c3ccccc3)CC2)n[nH]1 the results were Mtb betalactam 0 and RecA intein inh -0.2.
For COc1cnn(-c2ccc(Br)cc2)c(=O)c1SCc1ccccc1 the results were Mtb betalactam 10, Mtb H37Rv 11%, Arbovirus inh 8, YopH inh -23 and RecA intein inh 0.2.
For O/N=C(\c1ccc2c(c1)OCCO2)C1CCCCC1 the results were Mtb betalactam 3, Mtb H37Rv 10%, Arbovirus inh 7, YopH inh 17 and RecA intein inh 4.7.
`O=C(NNC(=S)NCc1ccco1)c1ccc(Cl)s1` gave Mtb betalactam -9, Mtb H37Rv -3%, Arbovirus inh 7, YopH inh -45 and RecA intein inh 4.3.
CCOC(=O)c1cnn2c(C)cc(-c3ccc(F)cc3)nc12 was read as Mtb betalactam -5, Mtb H37Rv -1%, Arbovirus inh -15, YopH inh -22 and RecA intein inh -3.8.
For O=C(NCCCN1CCN(CCCNC(=O)c2ccc3c(c2)OCO3)CC1)c1ccc2c(c1)OCO2 the results were Mtb betalactam 7, Mtb H37Rv -8%, Arbovirus inh 2, YopH inh -4 and RecA intein inh -0.2.
COc1ccc(NC(=O)COc2ccc(-c3nn(C)c(=O)c4ccccc34)cc2)cc1 was read as Mtb betalactam -3, Arbovirus inh 2 and RecA intein inh -1.6.
For Cc1nn(Cc2ccc(C(=O)Nc3nccs3)cc2)c(C)c1Cl the results were Mtb betalactam 14, Arbovirus inh -34, YopH inh 0 and RecA intein inh 2.4.
For COC(=O)c1cc(C)sc1NC(=O)CSc1ncccn1 the results were Mtb betalactam 10 and RecA intein inh 0.9.
Screening COc1c(Cl)ccc(Cl)c1C(=O)NCc1ccco1 returned Mtb betalactam 6, Mtb H37Rv 3%, Arbovirus inh 17 and RecA intein inh -2.2.
For O=c1c2ccccc2nc2n1CCC2 the results were Mtb betalactam -5, Mtb H37Rv -5%, Arbovirus inh 5, YopH inh -42 and RecA intein inh 51*.
For Cc1c(Cl)c(-c2n[nH]c(=S)n2-c2ccccc2)nn1C the results were Mtb betalactam 1, Mtb H37Rv 4%, Arbovirus inh -2, YopH inh -2 and RecA intein inh 0.4.
`Nc1ccc(-c2nc3ncccc3o2)c(O)c1` gave Mtb betalactam 63 and RecA intein inh -4.0.
For O=C(c1ccco1)N(Cc1nc2ccccc2c(=O)[nH]1)C1CCCC1 the results were Mtb betalactam -6, Mtb H37Rv -1%, Arbovirus inh 1 and YopH inh -24.
`Cc1nc2c(C(=O)NCc3ccco3)cnn2c(C)c1Cc1ccc(F)cc1Cl` gave Mtb betalactam 6, Mtb H37Rv 10%, Arbovirus inh 6, YopH inh -38 and RecA intein inh 1.8.
`COc1ccc(-c2c3c(cc(C)[n+]2[O-])oc2ccc(OC)cc23)cc1` gave Mtb betalactam -3, Mtb H37Rv -2%, Arbovirus inh 40*, YopH inh -19 and RecA intein inh -2.9.
`Cc1ccc(-c2nnc(-c3cccc(Br)c3)o2)cc1` gave Mtb betalactam 11, Mtb H37Rv 3%, Arbovirus inh 2, YopH inh -30 and RecA intein inh 1.5.
`O=C(NNc1cccc(Cl)n1)C(F)(F)F` gave Mtb betalactam 1, Mtb H37Rv 12%, Arbovirus inh 0 and RecA intein inh -6.3.
For O=C(CCS(=O)(=O)c1ccc(Cl)cc1)NCCc1c[nH]c2ccccc12 the results were Mtb betalactam -3, Mtb H37Rv 9%, Arbovirus inh -9 and RecA intein inh 0.3.
Cc1ccccc1CN(c1ccc(C(N)=O)cc1)S(C)(=O)=O was read as Mtb betalactam -6, Mtb H37Rv -11%, Arbovirus inh 6, YopH inh -39 and RecA intein inh -1.4.
`Cc1nc(-c2cccc(S(=O)(=O)N3CCOCC3)c2)cs1` gave Mtb betalactam -3, Mtb H37Rv -5%, Arbovirus inh 2, YopH inh -3 and RecA intein inh 1.1.
`CC(C)c1ccc(NC(=O)C2C3C=CC4(O3)C2C(=O)N(CCCN2CCCCC2)C4C(=O)NC2CCCCC2)cc1` (stereo not drawn) gave Mtb betalactam 1 and RecA intein inh 3.2.
For CCCN(CCC)CCCNC(=O)CNC(=O)c1nn(-c2ccc(OC)cc2)c(=O)c2ccccc12 the results were Mtb betalactam 1, Mtb H37Rv 5%, Arbovirus inh 4 and RecA intein inh 1.1.
Screening COc1ccc2c(O)c(-c3c(C)cc(C)cc3C)c(=O)[nH]c2c1 returned Mtb betalactam 50 and RecA intein inh 2.0.
`O=C(NC(=S)Nc1ccc(Br)cn1)c1cncc(Br)c1` gave Mtb betalactam -11, Mtb H37Rv 1%, Arbovirus inh 4, YopH inh -22 and RecA intein inh -0.9.
`O=c1c2sccc2n(Cc2cccc(F)c2)c(=O)n1-c1ccc(F)cc1` gave Mtb betalactam -2, Mtb H37Rv -8%, Arbovirus inh 7, YopH inh -23 and RecA intein inh -0.8.
`CC/S(CC1CC1(Cl)Cl)=N\S(=O)(=O)c1ccc(C)cc1` (stereo not drawn) gave Mtb betalactam -11, Mtb H37Rv -6%, Arbovirus inh -7, YopH inh -1 and RecA intein inh 1.8.
`COC(=O)C(Cc1ccccc1)NC(=S)NC(=O)c1ccccc1` (stereo not drawn) gave Mtb betalactam 14, Mtb H37Rv 3%, Arbovirus inh 2 and RecA intein inh 3.9.
Screening CN(C)n1cnc2ccsc2c1=O returned Mtb betalactam -1, Mtb H37Rv 2%, Arbovirus inh 7 and RecA intein inh -1.0.
O=C(Cc1ccc(Cl)cc1)Nc1ccc(S(=O)(=O)Nc2ncccn2)cc1 was read as Mtb betalactam 79 and RecA intein inh 2.1.
Cc1nc(SCc2ccccc2C)n[nH]1 was read as Mtb betalactam -1, Mtb H37Rv -8%, Arbovirus inh 4, YopH inh -15 and RecA intein inh -1.1.

Not all compounds are listed; rates above refer to the full screens.
